Screens (PubChem BioAssay)
ugtP null kill: growth inhibition of S. aureus ugtP deletion strain; S. aureus RN4220 ugtP deletion, OD600 growth, 16 h; some inactives read as strong as hits; growth inhibition, % (concentration not given with the values); 330,000 tested, 0.54% active;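 active means z-score under -3 and OD600 up to 0.15 on both plates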;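 further: plate controls were untreated wells for no effect and antibiotic for full effect; wells of about 80 µL received 100 nL stock; the first replicate is given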
Sa RN4220 lethal: S. aureus RN4220 growth inhibition; 330,000 tested, 0.33% active; OD600, 16 h; inhibition, % (test concentration not listed);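 active means z-score of -3 or lower and OD600 up to 0.18 on both plates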;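 further: plate controls were untreated cells for no effect and reference antibiotic for full effect; stock transfer was 100 nL into about 80 µL; one replicate is shown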
Bead autofluor: compound fluorescence in toxin protease inhibitor counterscreen. compound autofluorescence counterscreen, microsphere flow cytometry; stronger effect = higher value. 360,000 tested, 3.1% active. fluorescence intensity (test concentration not listed);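 active means at least 3 SD above the mean of all compounds, about 16000 in these data; inconclusive means too few beads counted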;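 further: 100 nL of 1 mM stock went into each well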
BJeLR viability: kills HRASV12-expressing BJeLR cells; 300,000 tested, 0.17% active; AID 1554; BJeLR (HRASV12) viability, CellTiter-Glo ATP luminescence, 48 h; reference of the scale not given here; inhibition, % (concentration not given with the values);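 active means replicate mean above 50%; inconclusive means above 50% but judged a plate artefact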;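 further: 50 nL library stock added to about 25 µL; numbers are from one replicate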
Mtb hypoxia rep: Mtb hypoxia fluorescent reporter inhibition; M. tuberculosis hypoxia-regulated fluorescent reporter, fluorescence; fluorescence inhibition, % (no concentration beside the values); 300,000 tested, 0.1% active;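 active means 35 to 45% if threefold the growth effect, above 45% if 1.5-fold the growth effect; inactive means the rest, general growth blockers included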;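 further: wells of about 50 µL received 100 nL stock; 0% = vehicle wells and 100% = reference inhibitor wells; whole bacteria with a GFP reporter of the hypoxia response; strong numbers were not always called active; many hits fall short of the cut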
PrP UTR inh: inhibition of PrP 5' UTR reporter expression; inhibition, % (test concentration not listed); AID 488862; cell-based PrP 5' UTR mRNA reporter, plate reader; 340,000 tested, 0.35% active;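 active means every replicate at 50% or more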;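 further: 0 = median of the neutral control wells; tested in H4 reporter cells; numbers are from one replicate; inactives centre near -14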
Mtb hypoxia rep growth: second read-out of Mtb hypoxia rep, no call of its own (marks repeat the call); growth inhibition, %; measured here: M. tuberculosis growth (absorbance);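 0% = vehicle and 100% = reference antibiotic; read after six days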
* = called active by the depositor; ? = inconclusive; . = no result given.

SMILES | ugtP null kill | Sa RN4220 lethal | Bead autofluor | BJeLR viability | Mtb hypoxia rep | Mtb hypoxia rep growth | PrP UTR inh
CC1(C)Cc2nc3sc4c(SCC(=O)O)ncnc4c3cc2CO1 | 6.2 | 3.5 | 4489 | 7.3 | 0.4 | -0.3 | 14.4
CCOC(=O)Cc1csc(SCC(=O)NC2CCCCC2)n1 | 8.3 | 5.1 | 1945 | 17.3 | 5.3 | 11.0 | -17.3
Cc1ccc(NC(=O)COC(=O)/C=C/c2cccc(Cl)c2)cc1S(=O)(=O)N1CCOCC1 | -0.9 | 5.5 | 2137 | -4.9 | 6.8 | 7.9 | -11.7
CCCCn1nc(C(=O)N2CCc3ccccc32)c2ccccc2c1=O | -5.4 | 2.1 | 23366* | -3.5 | 3.9 | 8.1 | -15.9
N#Cc1c(N)nc(N2CCCC2)c(C#N)c1-c1ccc(Cl)cc1 | -4.1 | 1.1 | 9535 | -0.1 | 20.0 | 7.4 | -11.1
CCOC(=O)c1cn2nc(Oc3ccc(NC(C)=O)cc3)ccc2n1 | -1.5 | -0.5 | 4203 | -9.4 | 1.4 | 14.5 | -26.6
Cc1cc(-c2c(C)[nH]n(-c3ccc(Cl)cc3)c2=O)n(-c2ccc(Cl)cc2)n1 | 3.6 | 9.0 | 4342 | -1.0 | 0.5 | 2.3 | -14.9
Clc1ccccc1Cc1noc(CN2CCN(Cc3ccccn3)CC2)n1 | 5.8 | 4.6 | 4756 | 6.0 | -0.9 | 0.0 | -13.3
COCCCNc1nnc(Cc2ccccc2)c2ccccc12 | 5.4 | 2.4 | 4510 | 4.1 | 10.3 | 2.1 | -32.0
O=S(=O)(CCc1nnc(-c2ccc(Br)cc2)o1)c1ccc(Cl)cc1 | -6.6 | -5.3 | . | 5.0 | 6.0 | 6.6 | -10.7
Oc1ccc(N2CCN(Cc3nc4ccccc4[nH]3)CC2)cc1 | -4.2 | 1.3 | 5329 | -5.2 | -1.2 | -0.8 | 1.8
COc1ccc(CNC(=O)CNS(=O)(=O)c2cccs2)cc1 | 3.8 | 1.7 | 3583 | 3.8 | 9.1 | 3.9 | -24.4
CCOc1ccc(S(=O)(=O)c2c(C(=O)c3ccccc3)cnc3cc4c(cc23)OCCO4)cc1 | 4.1 | -2.1 | 2515 | 3.1 | -2.9 | 9.1 | -1.6
NS(=O)(=O)c1cccc(NC(=O)COc2ccc([N+](=O)[O-])cc2)c1 | -2.6 | -1.3 | 3425 | -2.8 | -5.8 | -0.5 | -12.4
Oc1ccc(/C=N/NC(=S)NC2CC3CCC2C3)cc1 (stereo not given) | . | . | 4398 | -7.3 | . | . | -35.0
Cc1ccc(C(=O)Nc2ccc(N3CCCC3)cc2)c(C)c1 | -1.1 | 8.5 | 3649 | 6.3 | -0.4 | -0.5 | -13.2
CNCCc1ccc(O)c(O)c1 | -8.3 | 18.6 | 5365 | 5.2 | 12.0 | -1.1 | -14.3
O=C(Nc1nnc(C2=COCCO2)o1)c1ccc(S(=O)(=O)N2CCOCC2)cc1 | 5.4 | 7.5 | 2099 | -4.9 | 8.8 | 6.4 | -10.7
O=C(Nc1ccc(F)cc1)C(c1ccccc1)N1CCN(C(=O)c2ccco2)CC1 (stereo not given) | 10.4 | 7.1 | 4374 | -8.1 | 10.5 | 4.3 | -13.0
O=C(COC(=O)Cc1ccccc1[N+](=O)[O-])Nc1nnc(-c2ccccc2)o1 | 8.4 | 11.7 | ? | 2.9 | 1.9 | 0.0 | 9.2
O=C(Nc1cccnc1)c1ccc(S(=O)(=O)N2CCCCCC2)cc1 | -4.2 | 8.6 | 2351 | -9.2 | 9.1 | 3.2 | 4.3
CC(C)c1ccc(/C=C(\NC(=O)c2ccccc2)C(=O)NCCCn2ccnc2)cc1 | 1.5 | 0.7 | 4170 | -10.0 | 1.2 | 0.4 | -9.1
CCc1nc(Nc2ccccc2)c2nnn(Cc3ccccc3)c2n1 | 44.2 | 3.2 | 4475 | 15.3 | -5.7 | -0.5 | -10.2
O=C(CSc1c[nH]c2ccccc12)NC1CCCC1 | 3.6 | 1.4 | 6004 | 0.8 | 3.5 | 8.3 | -17.5
Cc1cc(C)c(C)c(S(=O)(=O)N2CCC(C(=O)NCCCN3CCCC3=O)CC2)c1C | -2.0 | 5.1 | 3003 | . | 4.2 | 0.6 | 5.3
Cc1ccc(S(=O)(=O)N2CCCC2)cc1C(=O)NCC(C)(C)N1CCOCC1 | -0.7 | -1.2 | 3850 | . | -9.8 | 7.6 | -9.3
Cc1ccc(C(=O)NC2CCN(C(=O)NC3CCCCC3)CC2)cc1 | -2.9 | -2.0 | 4266 | -8.6 | -4.0 | 6.2 | -13.4
Clc1ccc(-c2ncc3ccccn23)cc1 | -3.9 | 8.0 | 5802 | -11.6 | 10.4 | 3.9 | -72.3
O=C(Cc1ccc([N+](=O)[O-])cc1)N1N=C(C2CC2)CC1(O)C(F)(F)F (stereo not given) | 9.2 | 2.5 | 4304 | 1.9 | 6.2 | -7.9 | -26.9
COc1ccccc1CNC(=O)C(=O)NCC1OCCN1S(=O)(=O)c1ccc(Br)cc1 (stereo not given) | 4.9 | 2.6 | 4903 | -1.0 | 3.1 | 2.4 | -7.0
COC(=O)CC1COc2ccccc2N1S(=O)(=O)c1ccc(Br)cc1 (stereo not given) | 19.6 | 11.7 | 4208 | -9.4 | -4.5 | -3.0 | -11.8
CCCCc1cc(=O)oc2cc(C)cc(OCC(=O)N3CCC(C(N)=O)CC3)c12 | 6.4 | -0.7 | 5053 | -2.2 | . | . | -9.6
CC(=O)Nc1ccc(Nc2cc(C)nc(Nc3ccc(NC(C)=O)cc3)n2)cc1 | 2.8 | 7.8 | 5300 | . | 7.1 | 0.7 | .
COc1cc(Br)cc(/C=N/N(CCO)C2=NS(=O)(=O)c3ccccc32)c1OC | . | . | 3063 | -4.0 | . | . | -30.6
COc1ccccc1-c1nnc(SCC(=O)Nc2ccc(S(N)(=O)=O)cc2)n1N | 2.5 | 1.2 | 4207 | 6.7 | -0.5 | 5.4 | -7.2
Cc1ccc(NC(=O)CCn2c(=O)oc3ccccc32)c(C)c1 | 1.2 | 6.0 | 3395 | 5.5 | 5.0 | 7.6 | -35.9
CCC(=O)Nc1ccc2c(c1)nc1n2CCSC1 | -5.4 | 2.0 | . | 4.0 | -6.6 | 7.3 | -26.1
CC(=O)C1=C(C)OC2(O)c3ccccc3C(=O)C12O (stereo not given) | 13.3 | 1.9 | . | -7.9 | 9.5 | -2.2 | .
OCC(O)CN(c1ccccc1)c1ccccc1 (stereo not given) | 0.6 | 1.7 | 4720 | 3.3 | 7.4 | 7.2 | -5.0
COc1ccccc1NC(=O)CSc1nnc(-c2ccncc2)n1CC1CCCO1 (stereo not given) | 6.5 | 2.5 | 8573 | 16.3 | 13.4 | 6.9 | -26.5
COc1ccc(NC2=NC(C)(C)CS2)cc1 | 0.2 | 1.0 | 5058 | -1.6 | -6.6 | -12.9 | -46.1
O=C(/C=C\c1cccs1)N1CCN(Cc2ccc3c(c2)OCO3)CC1 | 9.7 | 7.3 | 5052 | 0.4 | . | . | -18.9
COc1ccc(C2=NN(c3nc4ccccc4s3)C(=O)/C2=C\N(C)C)cc1 | . | . | 10664 | 0.0 | . | . | -22.5
NC(=S)N1CCCc2ccccc21 | 6.2 | 4.2 | 4725 | -1.4 | 5.8 | 5.9 | -8.9
COc1ccc(NC(=O)Nc2ccc([N+](=O)[O-])cc2)cn1 | -5.9 | 1.4 | 3215 | 5.2 | -2.9 | -5.3 | -4.1
CN(/C=C/c1c([N+](=O)[O-])c(=O)n(C)c(=O)n1C)c1ccccc1 | 3.7 | 3.4 | 4374 | -6.2 | 10.2 | 3.9 | -14.2
COc1ccc(C(=O)NCCCNC(=O)c2cnccn2)cc1 | -1.3 | 3.1 | 4673 | 0.3 | -2.2 | -5.3 | 3.8
CCN(CC)S(=O)(=O)c1cc(C(=O)OCC(=O)NC(=O)c2cccn2C)ccc1C | 1.6 | 4.4 | 2550 | -14.9 | 2.7 | 2.3 | -9.6
CCOC(=O)C(C)Sc1nc2c(c(=O)[nH]c(=O)n2C)n1Cc1ccc(Cl)cc1 (stereo not given) | -3.6 | -14.6 | 6791 | 8.0 | 3.2 | 12.2 | -9.9
CC(=O)Nc1ccc(C=NNC(=O)c2cc3cc(C)ccc3nc2C)cc1 | -1.5 | 4.2 | . | . | 7.9 | 4.8 | .
CCN(CC(=O)Nc1cc(Cl)ccc1Cl)C(=O)c1ccc(-n2cccn2)cc1 | -3.6 | -3.3 | 4056 | . | -14.2 | 2.5 | -10.7
Cc1cccc(C(=O)OCC(=O)Nc2nnc(-c3ccccc3)o2)c1O | 12.3 | 31.4 | 4959 | 1.1 | 6.1 | 7.4 | -26.1
C=CCn1c(N/N=C/c2ccc(O)cc2)nc2ccccc2c1=O | . | . | 4824 | 0.5 | . | . | -30.9
CCCNC(=O)C1CC(c2cccc(F)c2)=NO1 (stereo not given) | -1.5 | 3.6 | 2911 | 3.9 | 23.3 | 14.2 | -15.8
COc1ccccc1N1CCN(CC(O)c2ccccc2)CC1 (stereo not given) | 11.2 | 0.5 | 3801 | -2.6 | 7.4 | 8.1 | -18.2
CCOC(=O)c1ccc(NC(=S)NCc2ccco2)cc1 | -5.9 | 2.2 | 5325 | 3.3 | 16.2 | 10.8 | -27.2
COc1ccc(C2CC(c3ccccc3)=NN2c2ccc(C(N)=O)cc2)cc1 (stereo not given) | 2.8 | -11.9 | 4124 | 13.4 | 9.7 | -5.4 | -14.3
N#CCCn1c(SCC(=O)NCCc2ccc(F)cc2)nc2ccccc21 | -1.7 | 2.5 | 5182 | . | . | . | -21.0
COc1cc(OC)c(C(=O)OCC(=O)NCCc2ccccc2)cc1OC | 9.0 | 6.2 | 3280 | 4.1 | 8.8 | -5.2 | -5.7
COc1cc(C(=O)NCC(=O)NCC(c2ccco2)N2CCCCC2)cc(OC)c1OC (stereo not given) | -5.7 | -2.5 | 3106 | . | -2.4 | -3.2 | 0.1
Other compounds follow.
SMILES | ugtP null kill | Sa RN4220 lethal | Bead autofluor | BJeLR viability | Mtb hypoxia rep | Mtb hypoxia rep growth | PrP UTR inh
CSC1=N/C(=C\c2ccc3c(c2)OCO3)C(=O)S1 | -4.1 | 7.1 | 2747 | 0.0 | . | . | -15.8
OC(COc1ccc2ccccc2c1Br)Cn1cnc(-c2ccccc2)c1 (stereo not given) | 0.6 | 31.4 | 4023 | 9.1 | . | . | -10.2
COc1ccc(-n2c(SCC(=O)NCc3ccco3)nc3c([nH]c4ccccc43)c2=O)cc1 | -19.1 | 1.5 | 4584 | 7.8 | -4.0 | -12.6 | -5.6
CCOC(=O)NC(O)C(=O)c1cccs1 (stereo not given) | 0.5 | 2.4 | 2938 | 5.4 | 2.9 | 12.7 | -24.9
COc1ccc(CN2CCN(C(=O)CC(C)C)CC2)cc1Br | 3.8 | 4.9 | 2992 | -3.7 | 14.0 | 0.8 | -37.1
Cc1cc(NC(=O)c2cc3cccc([N+](=O)[O-])c3[nH]2)ccc1F | -15.3 | 1.3 | 4497 | -2.5 | -0.6 | 5.0 | -64.3
CSc1ncccc1C(=O)Nc1nc(C(C)(C)C)cs1 | 1.9 | -1.5 | 5390 | 3.1 | -7.6 | -2.3 | 6.8
N#Cc1cccc(NC(=O)Cn2cnc(S(=O)(=O)N3CCCC3)c2)c1 | 11.9 | 1.6 | 4591 | 3.4 | 5.3 | -3.6 | -17.8

Three compounds picked at random from those above, as already listed:
SMILES | ugtP null kill | Sa RN4220 lethal | Bead autofluor | BJeLR viability | Mtb hypoxia rep | Mtb hypoxia rep growth | PrP UTR inh
CCOC(=O)NC(O)C(=O)c1cccs1 (stereo not given) | 0.5 | 2.4 | 2938 | 5.4 | 2.9 | 12.7 | -24.9
COc1ccc(CN2CCN(C(=O)CC(C)C)CC2)cc1Br | 3.8 | 4.9 | 2992 | -3.7 | 14.0 | 0.8 | -37.1
CSC1=N/C(=C\c2ccc3c(c2)OCO3)C(=O)S1 | -4.1 | 7.1 | 2747 | 0.0 | . | . | -15.8

Of the compounds above, 3 have a cyano group.
SMILES | ugtP null kill | Sa RN4220 lethal | Bead autofluor | BJeLR viability | Mtb hypoxia rep | Mtb hypoxia rep growth | PrP UTR inh
N#Cc1c(N)nc(N2CCCC2)c(C#N)c1-c1ccc(Cl)cc1 | -4.1 | 1.1 | 9535 | -0.1 | 20.0 | 7.4 | -11.1
N#CCCn1c(SCC(=O)NCCc2ccc(F)cc2)nc2ccccc21 | -1.7 | 2.5 | 5182 | . | . | . | -21.0
N#Cc1cccc(NC(=O)Cn2cnc(S(=O)(=O)N3CCCC3)c2)c1 | 11.9 | 1.6 | 4591 | 3.4 | 5.3 | -3.6 | -17.8
